# Assay outcomes (PubChem)
# Choline anaer gr: inhibitors of anaerobic choline-dependent gram-negative bacterial growth; AID 1963822; Gram-negative bacterium anaerobic choline minimal medium, absorbance growth; hits give low values; many inactives read as strong as hits in the columns shown; calls only; actives 0.2% (n = 55,000);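 active = growth z-score on choline under -2 at 7 or 20 h with little or no fall on glycerol, limits in tiers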;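 note: stock transfer was 300 nL into about 50 µL; the organism is E. coli; final concentration not given here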
# Choline anaer gr early: also measured in Choline anaer gr; calls as there; z-score; measured here: choline growth z-score, timepoint 1;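 score of optical density at 7 h as mean of two plates; lower means less growth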
# Starred values were filed as active, the others as inactive; i = inactive; + = active, no number; & = joins results of further samples. Not all compounds are listed; the hit share may differ from the screen's.
SMILES,Choline anaer gr,Choline anaer gr early
COc1ccc(OC)c(NC(=O)C2CC(=O)N(CCc3c[nH]c4ccc(Cl)cc34)C2)c1 (stereo unspecified),i,0.18
COCCN1C(=O)c2ccccc2Sc2cc(NC(=O)c3ccoc3)ccc21,i,-1.3
Cc1ccc(CNC(=O)Cn2c(C(=O)OC(C)C)cc3ccsc32)cc1,i,1.8
Cc1ccc(NC(=O)CN2C(=O)C3CCCCN3c3ccc(S(=O)(=O)N4CCCCC4)cc32)cc1 (stereo unspecified),i,0.13
CC(=O)Nc1ccc(C(=O)N(CCCN2CCCC2=O)CCC(=O)N2CCNCC2)cc1,i,0.66
O=S(=O)(c1ccc(F)cc1)N1CCN(c2ncnc3c2nnn3-c2ccccc2)CC1,i,0.63
Nc1c(C(=O)NCc2ccccc2)sc2nc(N3CCCC3)c3c(c12)CCCC3,i,1.6
Nc1ncnc2c1nc(Sc1ccc(Cl)cc1)n2C1OC2COP(=O)(O)O[C@@H]2[C@@H]1O (stereo partly specified),i,0.94
Cc1ccc(C)c(NC(=O)N2Cc3c(sc4c3CCN(C)C4)-n3cccc3C2C)c1 (stereo unspecified),i,-0.37
CCCCN1C=C(OC(=O)C(C)(C)C)c2ccccc2S1(=O)=O,i,0.44
Cc1cc(C)cc(N2CC(C)Cn3c2nc2c3c(=O)[nH]c(=O)n2C)c1 (stereo unspecified),i,0.61
Cc1c(-c2cccc(NC(=O)CC(C)C)c2)nc2ncccn12,i,-0.1
Cc1ccc(S(=O)(=O)N2CCCC2C(=O)Nc2ccc(O)cc2)cc1 (stereo unspecified),i,0.14
Cn1c(=O)n(CC(=O)N2CCCC2)c(=O)c2cc(S(=O)(=O)N3CCCCC3)ccc21,i,0.5
Cc1cc(C)c(S(=O)(=O)NCCc2n[nH]c(Cc3ccccc3)n2)cc1C,i,-0.33

# An excerpt taken from the entries so far:
SMILES,Choline anaer gr,Choline anaer gr early
COc1ccc(OC)c(NC(=O)C2CC(=O)N(CCc3c[nH]c4ccc(Cl)cc34)C2)c1 (stereo unspecified),i,0.18
COCCN1C(=O)c2ccccc2Sc2cc(NC(=O)c3ccoc3)ccc21,i,-1.3
Cc1ccc(CNC(=O)Cn2c(C(=O)OC(C)C)cc3ccsc32)cc1,i,1.8

# By substructure, the compounds so far containing a halogen.
SMILES,Choline anaer gr,Choline anaer gr early
COc1ccc(OC)c(NC(=O)C2CC(=O)N(CCc3c[nH]c4ccc(Cl)cc34)C2)c1 (stereo unspecified),i,0.18
O=S(=O)(c1ccc(F)cc1)N1CCN(c2ncnc3c2nnn3-c2ccccc2)CC1,i,0.63
Nc1ncnc2c1nc(Sc1ccc(Cl)cc1)n2C1OC2COP(=O)(O)O[C@@H]2[C@@H]1O (stereo partly specified),i,0.94

# The listing continues.
SMILES,Choline anaer gr,Choline anaer gr early
Cc1ccc(-n2ccnc(NCCc3ccccc3)c2=O)cc1,i,-1.4
Cc1cccn2c(=O)c(C(=O)NCCN(C)C)cnc12,i,0.58
O=c1[nH]c(=O)n([C@H]2C[C@H](O)C(CO)O2)cc1I (stereo partly specified),i,0.54
CCn1c(C(=O)N(C)C2CCCCC2)cc2c(=O)oc3ccccc3c21,i,-1.1
O=C(NC1CCCCC1)c1ccc2ccnc(N3CCN(c4ccc(F)cc4)CC3)c2c1,i,-0.61
O=c1c2c(-c3ccc(Cl)cc3)csc2ncn1Cc1ccc2c(c1)OCO2,i,1.7
Cc1nc(-c2ccc(C)c(S(=O)(=O)N3CCCC(C(=O)NC4CCCCC4)C3)c2)no1 (stereo unspecified),i,-0.17
CCc1cc(-c2csc(S(=O)(=O)Nc3ccc(C)c(C)c3)c2)on1,i,0.22
COc1ccc(NC(=O)C2CCN(Cc3cc4ccccc4n3Cc3cccc(F)c3)CC2)cc1,i,0.03
O=C(Nc1ccc2c(c1)OCO2)c1c(O)c2ccccc2[nH]c1=O,i,-0.08
CC1(C)S[C@@H]2[C@H](NC(=O)[C@H](C(=O)O)c3cccs3)C(=O)N2[C@H]1C(=O)O,i,0.16
COc1ccc(OC)c(CNC(=O)c2[nH]c(C)c(S(=O)(=O)N3CCCC3)c2C)c1,i,-0.7
CC(N)C12CC3CC(CC(C3)C1)C2 (stereo unspecified),i,0.34&0.43
Brc1ccc(OCc2nnc3sc(C4COc5ccccc5O4)nn23)cc1 (stereo unspecified),i,1.3
c1ccc2c(CCNc3nn4nnnc4c4ccccc34)c[nH]c2c1,i,-1.2

# Shown as labelled records: 3 of the compounds above
Molecule: Cc1ccc(CNC(=O)Cn2c(C(=O)OC(C)C)cc3ccsc32)cc1
  Choline anaer gr: i
  Choline anaer gr early: 1.8
Molecule: Cc1ccc(NC(=O)CN2C(=O)C3CCCCN3c3ccc(S(=O)(=O)N4CCCCC4)cc32)cc1 (stereo unspecified)
  Choline anaer gr: i
  Choline anaer gr early: 0.13
Molecule: CC(=O)Nc1ccc(C(=O)N(CCCN2CCCC2=O)CCC(=O)N2CCNCC2)cc1
  Choline anaer gr: i
  Choline anaer gr early: 0.66

# Further compounds follow:
SMILES,Choline anaer gr,Choline anaer gr early
O=C(CSc1nnc2n(Cc3ccco3)c(=O)c3sccc3n12)Nc1cc(F)ccc1F,i,-2.4
COC(=O)c1c(-c2cccc(Cl)c2)noc1NCC1CCCO1 (stereo unspecified),i,-0.85
CCOC(=O)c1c(C)[nH]c(C)c1S(=O)(=O)N1CCC(C(=O)Nc2ccc3c(c2)OCCO3)CC1,i,0.04
O=C(NCC1CCCO1)c1ccc(Nc2cc(-c3ccc(F)cc3)ncn2)cc1 (stereo unspecified),i,-0.52
COCCCNC(=O)c1ccc2c(c1)nc1n2CCCC1,i,-1.2
Cc1csc(-c2cc(S(=O)(=O)NC(C)C)cn2CC(=O)N2CCCC2)n1,i,-0.5
CCN(CCCNC(=O)C1CCN(c2nc3cccnc3s2)CC1)c1cccc(C)c1,i,0.57
O=C(Nc1cccc(Br)c1)C1CCN(c2ncc(-c3ccccc3)cn2)CC1,i,-0.94
CC1CCC(NC(=O)C2CCN(c3nc4ccccc4[nH]3)CC2)CC1 (stereo unspecified),i,-0.05
Cc1ccc(-c2nc(C(=O)N3CCCCC3)cs2)n1C,i,-2.9
CC(=O)N1c2ccc(S(=O)(=O)NCC3CCC(C(=O)Nc4cccc(C)c4)CC3)cc2CC1C (stereo unspecified),i,0.98
COc1ccc(N2CCN(C(=O)c3cc(C)n(-c4ccc(N5CCCCC5)nc4)c3C)CC2)cc1,i,1
COc1ccc(S(=O)(=O)N2CCN(c3ncnc4c3nnn4-c3ccccc3)CC2)cc1,i,0.14
CC(C)c1cc(-c2nnc3sc(-c4ccccc4Cl)nn23)n[nH]1,i,-0.86
CCc1ccccc1NC(=O)CCCN1C(=O)COc2ccc(C)cc21,i,0.47
Cc1noc2nc[nH]c(=O)c12,+,-3.4*
O=C(C1CCN(c2ncc(-c3ccccc3)cn2)CC1)N1CCN(Cc2ccccc2)CC1,i,-0.86
COc1cccc(CNC(=O)C2CCN(C(=O)c3cc4oc5ccccc5c4n3C)CC2)c1OC,i,0.39
COc1ccc(OC)c(C(=O)CSc2ncc3c(n2)-c2ccccc2N(C)S3(=O)=O)c1,i,1.6
NS(=O)(=O)c1ccc(CCNc2ncnc3nc[nH]c23)cc1,i,-0.89
CC1CCN(c2oc(-c3ccc(F)cc3)nc2S(=O)(=O)c2ccccc2)CC1,i,0.4
COc1ccc(C(=O)Nc2cnc3oc(-c4ccc(C(C)C)cc4)nn3c2=O)cc1OC,i,0.93
COc1ccc(-n2cc(C(=O)NCCCN3CCC(C)CC3)c3ccccc3c2=O)cc1,i,0.41
Cc1cc(Cl)ccc1NC(c1ccccn1)c1ccc2cccnc2c1O (stereo unspecified),i,2.2
O=C(CN1C(=O)c2ccccc2S1(=O)=O)Nc1ccc(S(=O)(=O)Nc2ccc(F)cc2)cc1,i,0.83
CCN(CC)S(=O)(=O)c1ccc2c(c1)N(CC(=O)Nc1c(C)cc(C)cc1C)C(=O)C1CCCN21 (stereo unspecified),i,-1.4
COc1ccc(C)cc1S(=O)(=O)N1CCN(c2cc(N3CCOCC3)nc(C)n2)CC1,i,0.09
O=C(O)CSc1nc2ccccc2nc1N1CCCCC1,i,0.22
O=C(CN1CCN(C(=O)CSc2ccc(Cl)cc2)CC1)Nc1nnc(-c2ccccc2)s1,i,1
Cc1cc(C)cc(N2CCCn3c2nc2c3c(=O)n(C)c(=O)n2C)c1,i,0.46
c1cncc(-c2noc(C3CCCCC3)n2)c1,i,0.35
CCn1c(=O)c(=O)n(CC)c2cc(N3CCCCC3)c(NC(=O)CN3CCN(C)CC3)cc21,i,-0.29
Cc1ccc(N2C(=O)CN(Cc3ccc4c(c3)OCO4)[C@H]3CS(=O)(=O)C[C@H]32)cc1C,i,-0.15
CC(C)C[C@H]1C(=O)N2CCC[C@H]2[C@]2(O)O[C@](NC(=O)[C@@H]3C=C4c5cccc6[nH]c(Br)c(c56)CC4N(C)C3)(C(C)C)C(=O)N12 (stereo partly specified),i,0.43
CN(CCc1noc(COc2ccc(Cl)cc2)n1)S(=O)(=O)c1ccc(F)cc1F,i,0.43
O=C(CSc1nnc(-c2cccnc2)o1)NCc1ccc2c(c1)OCO2,i,0.06
O=C(Nc1ccc(Oc2ccccc2)cc1)c1cnc2sc3c(n2c1=O)CCCC3,i,0.54
Cc1cccc(OCc2nc(CC(=O)Nc3ccc(Cl)cc3)cs2)c1,i,1.1
CC(C)c1cc(C2CCCN2Cc2cn[nH]c2-c2cccc(Br)c2)no1 (stereo unspecified),i,0.31
COc1ccc2cc1Oc1ccc(cc1)C[C@@H]1c3c(cc4c(c3Oc3cc5c(cc3OC)CCN(C)[C@@H]5C2)OCO4)CCN1C,i,-1.2
CC(C)Cc1cc(-c2nn3c(C(C)C)nnc3s2)n[nH]1,i,0.61
O=C(NCCc1csc(-c2ccccc2)n1)[C@H]1CCCN1C(=O)Cc1ccc(F)cc1,i,-1.8
Cc1ccc(NC(=O)c2nccnc2C(=O)O)c(C)c1,i,-1.3
Cc1nn(-c2ccc(F)cc2)c(C)c1S(=O)(=O)Nc1ccc(S(N)(=O)=O)cc1,i,0.32
COc1ccc(-c2noc(Cc3nc(-c4ccc(Cl)cc4)cs3)n2)cc1,i,1.5
COc1ccc(C)cc1NC(=O)N1CCN(S(=O)(=O)c2ccc3c(c2)NC(=O)CO3)CC1,i,-0.45
Cn1c(=O)n(C)c2cc(NS(=O)(=O)c3ccc4c(c3)CCCC4)c(Cl)cc21,i,0.87
C[N+]1(C)[C@@H]2CC(OC(=O)C(O)(c3cccs3)c3cccs3)C[C@H]1[C@@H]1O[C@@H]12 (stereo partly specified),i,0.83
Cc1ccc(S(=O)(=O)c2c(C)cc(C)n(CC(=O)NCCC3=CCCCC3)c2=O)cc1,i,-1.3
CCc1ccc(C2=C(C)C(=O)N(CC(=O)NCc3ccc(OC)cc3OC)S2(=O)=O)cc1,i,0.1
COc1cccc(-c2csc(-c3nc(-c4ccc(OC)c(F)c4)cs3)n2)c1,i,-0.41
COc1ccc(CNC(=O)c2ccc(-n3nnc4cccnc43)cc2)cc1,i,0.78
COc1ccc(S(=O)(=O)NCCc2csc(-c3ccc(Cl)cc3)n2)cc1C,i,0.44
CC(C)CN(Cc1ccc(F)cc1)Cc1cc(=O)n2nc(C3CC3)sc2n1,i,0.09
CCn1c(C(=O)N2CCN(c3ccc(F)cc3)CC2)cc2cc(S(=O)(=O)N(C)C)ccc21,i,0.53
COc1cc(OC)c(C(=O)CCCN2CCCC2)c(OC)c1,i,0.31&0.02
O=C(NCc1cccs1)c1cn2c(n1)CCCC2,i,-0.44
CC(=O)N1CCCSc2ccc(S(=O)(=O)Nc3ccc(Cl)cn3)cc21,i,-1.2
NC(=O)c1nc(Nc2ccccc2)sc1NC(=O)CSc1ccccc1,i,-0.79
CCc1ccc(NS(=O)(=O)c2c(C)nc3sc4cc(C)ccc4n3c2=O)cc1,i,-0.07

# Individual results from above.
# `O=C(NC1CCCCC1)c1ccc2ccnc(N3CCN(c4ccc(F)cc4)CC3)c2c1` in Choline anaer gr early → -0.61
# `O=C(CN1CCN(C(=O)CSc2ccc(Cl)cc2)CC1)Nc1nnc(-c2ccccc2)s1` in Choline anaer gr early → 1

# (more compounds)
SMILES,Choline anaer gr,Choline anaer gr early
CCOc1cc(C2CC(=O)Nc3c2cnn3-c2ccc3nnc(C)n3n2)ccc1OCc1ccccc1 (stereo unspecified),i,-0.03
CCN1C(=O)c2ccccc2Sc2cc(-c3noc(-c4ccc5c(c4)OCO5)n3)ccc21,i,0.22
CC1CCN(c2ncc3c(n2)CCC(C(=O)NCCN2CCOCC2)C3)CC1 (stereo unspecified),i,-1.5
COc1ccccc1C1CC(=O)Nc2c1c(C)nn2-c1nc(C)cc(C)n1 (stereo unspecified),i,-3
COc1ccc(NS(=O)(=O)c2ccc(/C=C\c3onc(C)c3NC(C)=O)cc2)cc1,i,-0.79
CCC(SC1=Nc2ccccc2C2=NC(CC(C)C)C(=O)N12)C(=O)N1CCc2ccccc21 (stereo unspecified),i,-0.67
Cc1cccc(-c2nc(CSc3nc4ccccc4n4c(C)nnc34)c(C)o2)c1,i,0.92
COCCNC(=O)N1CCC(c2nc(C(=O)N3CCSCC3)c(C)o2)CC1,i,-0.56
C#CCSc1nc2c(c(=O)[nH]1)C(c1ccc(O)c(O)c1)CC(=O)N2 (stereo unspecified),i,0.22
Cc1nc(NCc2ccccc2)c2c(C)noc2n1,i,-0.98
Cc1nn2c(NCCN(C)C)cc(C(C)(C)C)nc2c1-c1ccc(F)cc1,i,-0.24
Cc1cc(-c2c(C)sc(C)c2S(=O)(=O)NCc2ccc(Cl)cc2)n[nH]1,i,-0.15
COc1ccc(Cl)cc1S(=O)(=O)N1CCN(c2cc(-c3cccc(C)c3)ncn2)CC1,i,0.92
CC(C)OC(=O)c1sc2nc3c(cc2c1N)CN(C(C)C)CC3,i,-0.34
O=C(NC1CCCCC1)N1CCC(n2cnc3cccnc32)CC1,i,-0.25
Clc1ccc(-c2noc(CN3CCCC3)n2)cc1,i,-0.58
CCc1ccc(CN2C(=O)CN(S(=O)(=O)c3ccc(OC)cc3)CC2(C)C(=O)NC2CCCCC2)cc1 (stereo unspecified),i,0.55
NS(=O)(=O)c1ccc(CCNc2ccc(-c3nc(-c4ccccc4)no3)cn2)cc1,i,-0.25
OCCNCc1ccc(-c2ccc(Cl)cc2)o1,i,-1.1
